# TRPML1 inh: blocks the human TRPML1 channel | activity change, negative = inhibition, % (test concentration not listed) | TRPML1-inducible cells, Ca2+ dye fluorescence, FDSS; active compounds read low; inhibition of EC80 agonist-evoked calcium signal | AID 624415 | 390,000 compounds, 0.02% hits; in the data active means activity change below about -50%; inconclusive means about -30% to -50%; inactive means above about -30%;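 further: stimulus is agonist 54-4 at its EC80 concentration; on the % scale 0 is the no-effect control and ±100 the full control effect; compound concentration not given in the record; the text of the record puts the active cut at -80%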
# Target sequence (Q9GZU1 whole entry, looked up): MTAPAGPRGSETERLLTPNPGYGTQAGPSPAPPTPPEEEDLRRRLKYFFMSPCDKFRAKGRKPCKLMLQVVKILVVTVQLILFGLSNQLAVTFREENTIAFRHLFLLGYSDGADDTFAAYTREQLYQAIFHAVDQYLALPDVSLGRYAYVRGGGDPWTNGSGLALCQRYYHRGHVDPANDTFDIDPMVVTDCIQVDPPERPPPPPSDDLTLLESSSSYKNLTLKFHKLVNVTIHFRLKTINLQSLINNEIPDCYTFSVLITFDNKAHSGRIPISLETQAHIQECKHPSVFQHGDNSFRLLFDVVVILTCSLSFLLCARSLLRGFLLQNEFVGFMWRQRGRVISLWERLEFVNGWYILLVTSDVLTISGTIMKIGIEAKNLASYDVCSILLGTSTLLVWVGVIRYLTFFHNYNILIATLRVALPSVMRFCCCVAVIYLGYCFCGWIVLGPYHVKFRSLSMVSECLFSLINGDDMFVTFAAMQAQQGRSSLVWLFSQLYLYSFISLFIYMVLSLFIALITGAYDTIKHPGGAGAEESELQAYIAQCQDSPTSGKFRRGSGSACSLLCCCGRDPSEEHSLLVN
#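 Tet-induced TRPML1-DL cells loaded with Ca8 no-wash calcium dye were read kinetically on FDSS. Compound addition was followed by EC80 agonist 54-4 (4 uM final); inhibition was read over 110 s.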
# CtBP-E1A blk: inhibitors of CtBP/E1A interaction; AlphaScreen GST-E1A/His-CtBP binding, 1536-well; active compounds read low; control for the full effect not named in the record; activity change, % (test concentration not listed); 340,000 compounds, 0.49% hits; AID 651724; in the data active means activity change below about -65%; inconclusive means about -30% to -65%; inactive means above about -30%; further: on the % scale 0 is the no-effect control and ±100 the full control effect
#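 GST-E1A and His-tagged CtBP (125 nM each as 5X stock) were preincubated with pin-transferred compound for 2 h at 37 °C in the dark, then glutathione donor and nickel acceptor beads were added for 1 h before AlphaScreen reading.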
# PINK1 expr mod: changes PINK1 expression; PINK1 immunofluorescence, high-content cytometry, 24 h; 410,000 compounds, 0.2% hits; Potency, µM (doses to about 76.6 µM), without a hit: at the top dose activation (PINK1 increase), hits mostly activators; active = well fitted activation curve with a large enough effect; inconclusive = small, poorly fitted or top-dose-only effect; inactive = flat fitted curve, though single readings scatter; cell line not stated here;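 further: potency means the concentration at half of the fitted maximal effect; % of control where 0% means no effect; nearly all actives have a fitted effect of over 65% in size; a mitochondrial uncoupler was the plate control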
#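 Readout is PINK1 immunofluorescence, quantified alongside mitochondrial, cell and nuclear markers by laser-scanning microplate cytometry. Cells from a stable line were exposed to compound titrations (5 concentrations) for 24 hours, with CCCP controls.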
# D2 agonist: agonists of human D2 dopamine receptor (beta-arrestin). DiscoveRx PathHunter D2 beta-arrestin, luminescence, 90 min; 100% = 57 uM dopamine signal. activation, % (no concentration beside the values). P14416. 360,000 compounds, 0.084% hits; in the data active = activation above about 40%; inconclusive = about 15% to 40%; inactive = below about 15%; further: compound concentration not given in the record; the text of the record calls up to 30% inactive
# Target sequence (P14416 whole entry, looked up): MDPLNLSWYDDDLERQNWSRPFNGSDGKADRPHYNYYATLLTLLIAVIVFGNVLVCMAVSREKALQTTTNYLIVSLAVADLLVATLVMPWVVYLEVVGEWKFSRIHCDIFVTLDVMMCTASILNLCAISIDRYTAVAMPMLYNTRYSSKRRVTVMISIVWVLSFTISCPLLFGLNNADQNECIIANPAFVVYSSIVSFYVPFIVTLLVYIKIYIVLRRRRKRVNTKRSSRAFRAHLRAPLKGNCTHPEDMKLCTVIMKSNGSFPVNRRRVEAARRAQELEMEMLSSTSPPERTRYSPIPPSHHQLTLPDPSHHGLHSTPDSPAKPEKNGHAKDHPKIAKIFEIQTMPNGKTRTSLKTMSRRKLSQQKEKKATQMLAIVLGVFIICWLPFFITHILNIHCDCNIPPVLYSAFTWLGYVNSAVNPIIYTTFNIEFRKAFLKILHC
#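 Agonist mode: compounds alone added to overnight-plated D2 PathHunter cells for 90 min at 37 C, with 57 uM final dopamine (EC100) defining full response. Beta-arrestin recruitment detected by chemiluminescent reagent, read after 1 h at ambient temperature.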
# TRPML1 ag: activates the human TRPML1 channel; 410,000 compounds, 0.12% hits; Q9GZU1; TRPML1-expressing cells, Ca2+ dye fluorescence, FDSS; host cell line not named in the record; reference of the full effect not given here; AID 624414; activation, % (test concentration not listed); in the data active = activation above about 50%; inconclusive = about 30% to 50%; inactive = below about 30%; further: 0% is about no effect; the text of the record puts the active cut at 80%
#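 TRPML1-DL cells, Tet-induced overnight (~16 h, 37 degrees C), loaded 45-90 min at room temperature with Ca8 no-wash calcium dye plus quencher. FDSS fluorescence: 10 s baseline, compound pin-transfer, 110 s agonist read, then EC80 54-4 (4uM final) and 110 s antagonist read.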
# Six1-Eya2 blk: blocks human Six1 binding to Eya2; Q15475+O00167; AlphaScreen GST-Six1/His-Eya2 binding, biochemical; active compounds read low; control for the full effect not named in the record; activity change, % (no concentration beside the values); 360,000 compounds, 0.56% hits; AID 651725; in the data active = activity change below about -65%; inconclusive = about -30% to -65%; inactive = above about -30%; further: on the % scale 0 is the no-effect control and ±100 the full control effect
#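 AlphaScreen luminescence read after one hour at 37 °C in darkness. Pin-transferred compounds met GST-Six1 and His-Eya2 protein (5X stock 250 nM/500 nM) plus glutathione donor and Ni-chelate acceptor beads (5X, 50 ug/mL).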
# * marks the source's active call; other numbers are inactive results; ? = inconclusive; nt = not tested or not shown; [ ] = remark or other dose.
SMILES,TRPML1 inh,CtBP-E1A blk,PINK1 expr mod,D2 agonist,TRPML1 ag,Six1-Eya2 blk
O=C1C=CC(=O)N1,25.4,2.5,0.2%,-2.6,0.6,3.6
Cc1cc(C)c(C#N)c(Nc2ccc(F)cc2)n1,4.7,16.8,5.0%,-2.2,1.1,6.5
CCOc1ccc(Cn2c(CNS(=O)(=O)c3ccc(CC)cc3)nc3cccnc32)cc1,4.5,nt,-1.1%,nt,2.2,nt
COc1cccc(NC(=O)C2CCN(S(=O)(=O)c3cc(-c4noc(C)n4)ccc3C)CC2)c1,6.5,nt,1.8%,nt,0.7,nt
Cc1cc(S(=O)(=O)Nc2ccc(C(=O)N3CC(C)OC(C)C3)cc2)ccc1F (stereo not given),0.7,-22.7,0.4%,1.6,0.0,9.0
O=C(COC(=O)/C=C/c1ccc2c(c1)OCO2)NCc1ccc(F)cc1,4.5,-3.1,7.3%,-0.4,-1.0,2.0
O=C(Nc1ccc(-c2nc3c(ccc4ccccc43)o2)cc1)c1ccco1,-8.8,0.0,?,5.3,0.9,1.4
CCC1S/C(=N/C(=O)NC2CCCCC2)NC1=O (stereo not given),3.2,2.7,2.5%,0.7,0.7,5.4
COc1ccc(C)cc1NC(=O)C(Cc1ccccc1)NS(=O)(=O)c1ccc(Br)s1 (stereo not given),-20.4,nt,7.4%,nt,-0.4,nt
CCCCCC/C=C/c1ccc(OC)c([C@H]2[C@H]3C=CC[C@@H](C)[C@@H]3C(=O)N2Cc2ccccc2)c1,5.9,-6.2,-0.5%,1.2,-0.3,0.3
CCN(c1ccccc1)S(=O)(=O)c1cc(C(=O)Nc2cccc(Cl)c2)ccc1F,4.7,1.7,10.8%,0.5,-0.2,5.1
COC(=O)Cn1c(C)nc([N+](=O)[O-])c1Br,17.7,8.7,0.7%,-0.2,-0.4,-10.7
Clc1cccc(CSc2nncn3c2cc2sccc23)c1,-2.2,nt,1.3%,nt,0.9,nt
CCN1CCN(CCCNC(=O)C2c3ccccc3C(=O)N(C)C2c2ccc(OC)cc2)CC1 (stereo not given),-9.6,-1.8,2.1%,0.3,0.0,-8.9
COc1ccc(NC(=O)Cc2csc(COc3cccc(C)c3)n2)c(OC)c1,41.0,nt,0.6%,nt,2.9,nt
COc1cc2nc(C3CCC3)n(NC(=O)C3CCC(OC)CC3)c(=O)c2cc1OC (stereo not given),-1.7,8.7,3.9%[38.3 µM],-0.7,-0.8,3.3
COc1ccccc1CCC(=O)N1CCC(n2nccc2NC(=O)CC(C)C)CC1,1.5,3.1,-0.1%,-2.1,0.0,4.0
Cc1ccc(CNC(=O)C(=O)NCCC2=CCCCC2)cc1,1.6,nt,2.4%,-2.6,0.2,-2.7
CC(c1ccccc1)c1nnc(NC(=O)Nc2ccccc2F)s1 (stereo not given),2.3,0.2,-1.2%,12.8,4.6,8.5
COc1ccc(/C=C/C(=O)OCC(=O)N2CCc3ccccc32)cc1,-10.7,-2.0,-1.0%,-1.0,0.5,3.9
COCCCN1CN=C(NS(=O)(=O)c2ccc(C)cc2)NC1,12.8,3.1,-0.7%,3.9,1.3,6.0
CCOC(=O)c1c(S(=O)(=O)N(C)Cc2ccco2)c(C)n(C)c1C,7.4,-15.9,-1.0%,2.0,-0.4,-0.1
CCOC(=O)c1cnn2cc(-c3[nH]ncc3[N+](=O)[O-])cnc12,-3.7,-3.5,-1.2%,-0.1,-0.4,-18.0
COc1ccc(CN2CCn3nc(C(=O)NC4CC4)cc3C2=O)cc1,-7.9,5.1,-1.7%,1.0,-0.6,1.7
O=C(Nc1ccnn1C1CCN(Cc2ccc(OC(F)F)cc2)CC1)C1CCCC1,2.0,0.2,1.6%,-0.8,0.3,-5.2
COc1ccccc1NC(=S)NNC(=O)c1nn(C)c(C)c1Br,30.6,-4.8,3.6%,-6.1,0.0,?
CC(=O)Nc1cc2c(cc1[N+](=O)[O-])-c1ccccc1C2O (stereo not given),-26.9,0.0,-0.3%,11.3,-1.2,10.5
COc1ccc(NC(=O)C[C@H]2C(=O)N(c3ccc(Br)cc3)C[C@@H]2c2ccc(OC)cc2)cc1,-13.3,-13.3,1.3%,-8.2,0.2,-13.3
C=CCN1c2ccccc2[C@]23C[C@@H](C(=O)OC)N=C2NC(C(=O)OC)=C(C(=O)OC)[C@H]13,40.3,1.7,1.2%,-0.9,0.1,0.6
O=C(NC(=S)Nc1ccc(N2CCOCC2)c(Cl)c1)c1cccs1,11.0,-7.8,1.0%,2.2,-0.2,-11.5
CCCCNC(=O)C(CC)Sc1nnc(-c2ccc(OC)c(OC)c2)c(-c2ccc(OC)c(OC)c2)n1 (stereo not given),-8.4,nt,0.4%,nt,0.7,nt
COc1cc([N+](=O)[O-])ccc1NC(=S)NC(=O)CC(C)(C)C,12.3,nt,2.4%,2.5,1.1,-3.5
OCCN1CCN(c2ncnc3c2ncn3[C@H]2CN(Cc3ccccc3)C[C@@H](CO)O2)CC1,nt,-20.8,0.2%,-2.8,0.1,6.8
O=C(OCCN1C(=O)c2ccccc2C1=O)c1cc(S(=O)(=O)N2CCOCC2)ccc1Cl,1.4,-2.3,1.1%,2.8,1.6,3.2
COc1cccc(-n2cc(C(=O)Nc3ccccc3C(N)=O)c3ccccc3c2=O)c1,-5.9,nt,1.3%,nt,0.3,nt
O=C(NCCC1=CCCCC1)c1ccc(=O)oc1,10.9,-3.1,1.6%,-1.5,0.1,-1.4
CC(=O)NC(CC(=O)NNC(=O)C(C)Oc1ccccc1F)c1ccccc1 (stereo not given),-8.1,4.1,0.5%,-3.6,1.2,2.3
CCCCCCCCN1C(=O)[C@H](CC(=O)NCCCOCCCC)C[C@@]2(C(=O)OC)CCCCC=C12,nt,-0.3,-1.3%,nt,0.3,4.0
CCc1ccc(-c2nc(SCC(=O)c3c(N)n(C4CC4)c(=O)[nH]c3=O)n[nH]2)cc1,4.2,nt,14.1%,-4.1,-0.2,1.3
COc1ccccc1N(C)S(=O)(=O)c1ccc(C)c(C(=O)Nc2nccs2)c1,8.0,-4.0,1.0%,1.8,-0.1,-9.7
CC(=O)c1c(C(C)=O)c(C)n(-c2nc(-c3cccs3)c(C)s2)c1C,-16.7,-3.3,0.6%,1.5,0.7,1.3
O=C(COC(=O)CN1C(=O)c2ccccc2C1=O)NC1CCCCC1,-11.4,5.4,-0.7%,9.5,2.0,3.5
COC(=O)Nc1cc(C(F)(F)F)ccc1N1CCN(c2ccccc2)CC1,17.9,-5.6,nt,0.0,0.4,0.0
O=C(Nc1ccc(Br)cc1F)c1ccc2nc(CCc3ccccc3)oc2c1,-8.7,nt,3.1%,nt,-0.7,nt
O=C(CN1C(=O)NC2(CCCC2)C1=O)Nc1cc(Cl)ccc1N1CCCC1,-6.8,-1.1,-0.4%,-3.1,0.3,5.4
CNC(=O)c1ccc(NC(=O)c2nsc3ccccc23)cc1,7.4,nt,0.7%,nt,0.2,nt
CC1CCCN(CCCNC(=O)c2ccc(CS(=O)(=O)Cc3cccc(Cl)c3)o2)C1 (stereo not given),6.2,1.0,-2.1%,-2.0,-0.5,3.0
N#Cc1ccc(CN(c2ccncc2)S(=O)(=O)c2ccccc2)cc1,13.1,-0.6,0.6%,-3.5,-0.4,5.4
COc1cccc(-n2nnc(S(=O)(=O)c3ccc(C)cc3)c2N)c1,?,nt,1.8%,-0.4,0.0,-0.6
O=C(NCCc1c[nH]c2ccccc12)N[C@@H](Cc1ccccc1)C(=O)O,9.7,4.3,0.3%,1.0,-0.3,-3.3

# Sorted by molar mass (falling): some entries from above
SMILES,TRPML1 inh,CtBP-E1A blk,PINK1 expr mod,D2 agonist,TRPML1 ag,Six1-Eya2 blk
CC1CCCN(CCCNC(=O)c2ccc(CS(=O)(=O)Cc3cccc(Cl)c3)o2)C1 (stereo not given),6.2,1.0,-2.1%,-2.0,-0.5,3.0
O=C(Nc1ccc(Br)cc1F)c1ccc2nc(CCc3ccccc3)oc2c1,-8.7,nt,3.1%,nt,-0.7,nt
O=C(CN1C(=O)NC2(CCCC2)C1=O)Nc1cc(Cl)ccc1N1CCCC1,-6.8,-1.1,-0.4%,-3.1,0.3,5.4
O=C(NCCc1c[nH]c2ccccc12)N[C@@H](Cc1ccccc1)C(=O)O,9.7,4.3,0.3%,1.0,-0.3,-3.3

# The listing continues.
SMILES,TRPML1 inh,CtBP-E1A blk,PINK1 expr mod,D2 agonist,TRPML1 ag,Six1-Eya2 blk
C=C(C)CCOC(=O)C(CC(=O)O)NCc1ccco1 (stereo not given),-11.8,nt,0.1%,-3.1,-0.6,-14.5
Cc1ccc(Nc2nc(C(=O)N3CCC(C(=O)NCc4ccccc4)CC3)cs2)cc1,-2.5,0.0,3.2%,-2.7,-0.7,-16.3
CCN(CC)CCOC(=O)C1(c2ccc(OC)c(OC)c2)CCCC1,-2.6,4.5,-0.1%[38.3 µM],-3.0,-0.3,-0.2
CCCCOc1ccc(C(=O)NCC(=O)NCc2ccncc2)cc1,-9.5,-2.3,-0.9%,-0.5,-0.3,8.8
CC(=O)Nc1ccc(S(=O)(=O)N2CCN(S(=O)(=O)c3cccs3)CC2)cc1,11.2,-1.9,6.1%,-0.1,-0.1,-1.9
COc1cc2c(cc1OC)C1(C)N(CC2)C(C(C)=O)=NN1c1ccc(Cl)cc1 (stereo not given),8.3,nt,0.7%,-5.6,-1.0,-2.3
CC(NC(=O)c1cc2c(=O)n3ccccc3nc2n(CC2CCCO2)c1=N)c1ccccc1 (stereo not given),28.0,-8.2,-0.1%,-2.4,-0.6,3.7
COc1ccc(CCNC(=O)CCc2cn(Cc3ccc(C)cc3)c3ccccc23)cc1OC,8.7,nt,0.3%,nt,0.7,nt
Cc1cccn2c(CNC3CCCc4ccccc43)c(C(=O)N3CCOCC3)nc12 (stereo not given),-4.5,5.1,0.5%,-0.5,1.5,7.1
O=C(NCc1cccnc1)c1ccc(-c2ccccc2[N+](=O)[O-])o1,-14.9,15.6,0.1%,2.3,0.4,19.6
O=C(CCC1N=C2c3ccccc3N=C(SCc3cccc(Cl)c3)N2C1=O)NCCc1ccccc1 (stereo not given),15.5,nt,1.4%,nt,-1.0,nt
Cc1ccccc1CC1(CO)CCCN(C(=O)c2ccoc2)C1 (stereo not given),-3.3,2.3,1.1%,-0.3,-0.3,-0.7
COc1ccccc1NS(=O)(=O)c1cc(C(=O)N2CCN(C(=O)c3ccco3)CC2)ccc1F,1.0,-3.6,2.3%,5.5,3.7,4.6
c1ccc(CN=C2NN=C(c3cc4ccccc4o3)CS2)cc1,-7.1,-6.6,-0.4%,1.4,1.4,-4.2
CC(C)CC(=O)Nc1ccccc1Oc1ccccc1,17.9,9.3,-0.5%,0.1,0.4,14.7
CCCCN(C(=O)CSCC(=O)Nc1cccc(C)c1)c1c(N)n(Cc2ccccc2)c(=O)[nH]c1=O,-17.2,3.4,-1.1%,-1.2,-1.0,9.8
Cn1c(=O)c2ncn(CC(=O)Nc3nc(-c4ccc(Cl)cc4)cs3)c2n(C)c1=O,-12.6,nt,6.6%,-1.0,2.0,2.6

# Screening results: PubChem, National Center for Advancing Translational Sciences (NCATS)
